fixLJ activator – increases Burkholderia fixLJ two-component signaling | B. multivorans fixK-promoter GFP reporter, 18 h; hits give high values | z-score (concentration not given with the values) | 0.3% of 29,000 active | AID 1918990;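 active = replicate mean overnight rise in green fluorescent reporter signal, 3 or more SD over negative controls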;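 note: score is relative to vehicle wells of the plate; 300 nL library stock went into each well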
Numbers without * were called inactive. The list is partial; the hit share may differ from the screen's.

| no. | Structure | fixLJ activator |
| --- | --- | --- |
| 1 | Cc1cccc(NC(=O)c2sc3nc(N4CCOCC4)c4c(c3c2N)CC(C)(C)OC4)c1 | -1.11 |
| 2 | O=S(=O)(c1cccc(C(F)(F)F)c1)N1CCC(Oc2ccc(-n3cnnn3)cc2)CC1 | -0.55 |
| 3 | Cc1ccc2oc(=O)c3cc(C(=O)N(Cc4ccccc4)C(C)C)sc3c2c1 | 1.2 |
| 4 | Cc1cccn2c(=O)c3cc(C(=O)NCc4ccccc4)c(=N)n(CCOCCO)c3nc12 | -0.89 |
| 5 | Cc1ccc(Cn2c(C)c3cnn(CC(=O)NCCc4ccc(Cl)cc4)c(=O)c3c2C)cc1 | -2.27 |
| 6 | Cc1ccc(C)c(CN2C(=O)c3ccccc3S(=O)c3ccc(C(=O)NCc4ccccc4Cl)cc32)c1 (stereo not drawn) | 1.91 |
| 7 | CCSc1ncc(Cl)c(C(=O)Nc2ccc(S(=O)(=O)Nc3nccc(C)n3)cc2)n1 | -0.19 |
| 8 | O=C1NCC2(CCCN(Cc3nc(-c4ccc(F)cc4)cs3)C2)O1 (stereo not drawn) | 0.09 |
| 9 | Cc1cccc(NC(=O)Cn2c(=O)n(Cc3ccc(C(=O)NCc4ccc5c(c4)OCO5)cc3)c(=O)c3ccccc32)c1 | 0.82 |
| 10 | CC(=O)Nc1cccc(-n2cc3c(c2-c2ccccc2Cl)c(=O)n(C)c(=O)n3C)c1 | 0.28 |
| 11 | COc1cc2nc(Nc3ccc(F)cc3)nc(N)c2cc1OC | -0.68 |
| 12 | COc1ccc(CNC(=O)CCc2nnc3n(C)c(=O)c4sccc4n23)cc1 | 0.54 |
| 13 | CCOC(=O)N1CCc2c(sc3c2c(=O)n(-c2ccc(CC)cc2)c(=O)n3CC(=O)c2ccccc2)C1 | -1.12 |
| 14 | CCOc1cc(C)c(C(C)C)cc1S(=O)(=O)n1ccnc1CC | -3.34 |
| 15 | COc1cc(C(=O)Nc2ccc(Cl)c(-c3nc4ncccc4o3)c2)cc(OC)c1OC | 0.62 |
| 16 | CCOc1ccc(CNC(=O)C2CCN(C(=O)c3sccc3-n3cccc3)CC2)cc1 | -2.13 |
| 17 | Cn1c(CN2CCCCC2)nnc1C1CCN(C(=O)CCC2CC2)CC1 | 0.92 |
| 18 | CCCc1nnc(N2CCC3(CCC(=O)N(CCO)C3)CC2)s1 | -3.15 |
| 19 | Cc1ccc(CN2C(=O)SC(Nc3ccc(Cl)cc3)C2=O)cc1 (stereo not drawn) | -0.73 |
| 20 | CN1CCc2cc3c(cc2C1O)OCO3 (stereo not drawn) | -2.13 |
| 21 | CCc1ccc2oc(C(=O)Nc3cc(C)ccc3C)cc(=O)c2c1 | -0.69 |
| 22 | CCc1noc(CCNC(=O)N2CCCC2c2nc3ccc(F)cc3[nH]2)n1 (stereo not drawn) | -0.53 |
| 23 | COc1ccc(NC(=O)/C(C#N)=C/c2cc(C)n(-c3ccc(F)cc3)c2C)cc1 | -1.08 |
| 24 | Cc1ccc(-c2n[nH]c3c2C(c2ccc(C(C)(C)C)cc2)NC3=O)cc1 (stereo not drawn) | 0.42 |
| 25 | Fc1ccc(-c2csc(=Nc3cccc(C(F)(F)F)c3)n2Cc2ccc3c(c2)OCO3)cc1 | 0.24 |

Reformatted: 4 of the compounds above
25. Fc1ccc(-c2csc(=Nc3cccc(C(F)(F)F)c3)n2Cc2ccc3c(c2)OCO3)cc1
- fixLJ activator: 0.24

20. CN1CCc2cc3c(cc2C1O)OCO3 (stereo not drawn)
- fixLJ activator: -2.13

17. Cn1c(CN2CCCCC2)nnc1C1CCN(C(=O)CCC2CC2)CC1
- fixLJ activator: 0.92

3. Cc1ccc2oc(=O)c3cc(C(=O)N(Cc4ccccc4)C(C)C)sc3c2c1
- fixLJ activator: 1.2

More results.
| no. | Structure | fixLJ activator |
| --- | --- | --- |
| 26 | Cc1ccsc1CCN1C(=O)N(c2ccccc2)C(=O)C1CC(=O)Nc1ccc(F)cc1 (stereo not drawn) | -0.99 |
| 27 | COc1ccc(S(=O)(=O)Nc2cc(S(=O)(=O)c3ccccc3)c(O)c(C)c2C)cc1 | -2.88 |
| 28 | CN(CCc1ccccn1)c1ncccc1CNC(=O)CN1CCOC1=O | 1.28 |
| 29 | CCC1CCc2nc3sc(C(=O)Nc4ccc(C)cc4C)c(N)c3cc2C1 (stereo not drawn) | -0.15 |

Grouped by structure, the entries above with two or more sulfur atoms
| no. | Structure | fixLJ activator |
| --- | --- | --- |
| 7 | CCSc1ncc(Cl)c(C(=O)Nc2ccc(S(=O)(=O)Nc3nccc(C)n3)cc2)n1 | -0.19 |
| 27 | COc1ccc(S(=O)(=O)Nc2cc(S(=O)(=O)c3ccccc3)c(O)c(C)c2C)cc1 | -2.88 |

Looked up by structure from the list above, 2 records:
| no. | Structure | fixLJ activator |
| --- | --- | --- |
| 29 | CCC1CCc2nc3sc(C(=O)Nc4ccc(C)cc4C)c(N)c3cc2C1 (stereo not drawn) | -0.15 |
| 27 | COc1ccc(S(=O)(=O)Nc2cc(S(=O)(=O)c3ccccc3)c(O)c(C)c2C)cc1 | -2.88 |

Screening results deposited in PubChem BioAssay by ICCB-Longwood Screening Facility, Harvard Medical School.
